# Bioassay records (PubChem)
# VACV Venus inh: qHTS for Stage-Specific Inhibitors of Vaccinia Orthopoxvirus: Venus Reporter Primary qHTS. Vaccinia virus Venus reporter expression, fluorescence. hit rate 0.46% among 330,000. Potency, µM (top dose mostly 36.5 µM), inactives show at the highest dose activity change, negative = inhibition, most hits filed as inhibitors. AID 720580, 2013; active means well fitted inhibition curve with a large enough effect; inconclusive means small, poorly fitted or top-dose-only effect; inactive means no such curve, though single readings can be large or run the other way; tested in A549 cells; note: nearly all actives have a fitted effect of over 30% in size; inactives centre near -10
# VACV mCherry inh: qHTS for Stage-Specific Inhibitors of Vaccinia Orthopoxvirus: mCherry Reporter Primary qHTS; Vaccinia virus mCherry reporter infection, fluorescence; about a quarter of the inactives have no number; Potency, µM (doses to about 36.5 µM), for the others: at the top dose activity change, negative = inhibition, usual class: inhibitors; hit rate 0.63% among 310,000; AID 720579, 2013; active = well fitted inhibition curve with a large enough effect; inconclusive = small, poorly fitted or top-dose-only effect; inactive = no such curve, though single readings can be large or run the other way; tested in A549 cells; note: nearly all actives have a fitted effect of over 35% in size; inactives centre near -10
# Numbers without * were called inactive; i = inactive; ? = inconclusive; . = not tested or not shown; & = joins results of further samples; [ ] = remark or other dose. % is set by controls: 0 for no effect and ±100 for the full control effect; potency is the fitted concentration of half-maximal effect.
mol,VACV Venus inh,VACV mCherry inh
CC(C)=CC(=O)OCC(=O)Nc1ccccc1Cl,-21%,.
COc1ccc(NC(=O)CSc2nc(C3CC3)nc3ccccc23)c(OC)c1,-24%,?
CC(C)(C)NC(=O)C(c1c[nH]c2ccccc12)N(C(=O)Cn1nnc(-c2ccc(F)cc2)n1)c1cccc(O)c1 (centres undefined),?,?
Nc1nc2cc(Cl)c(Br)cc2o1,-13%,-5%
COc1ccc(/C=N/Nc2nc(-c3ccc(C)cc3)c(NC(C)=O)s2)cc1,-18%,10µM*
O=C(CSc1nc2ccc(Cl)cc2o1)NCc1ccc2c(c1)OCO2,?,.
Cc1cccc(NC(=O)CSc2nc3ccccc3nc2N2CC(C)OC(C)C2)c1 (centres undefined),-12%,-7%
O=C(CSC1CC(=O)N(CCc2ccccc2)C1=O)Nc1ccc(Cl)cc1 (centres undefined),-25%,-9%
CCn1c(SCC(=O)Nc2ccc3c(c2)c2ccccc2n3CC)nnc1-c1ccco1,-18%,-7%
COc1ccc(N2CCN(C(=O)c3cccc(N4C(=O)C5CC=CC(C)C5C4=O)c3)CC2)cc1 (centres undefined),-4%,-10%
CCn1cc(C(=O)NCCCOC(C)C)c2cc(OC)c(OC)cc2c1=O,-8%,-13%
COCc1cc(Sc2ccc(Cl)cc2Cl)nc(-c2ccccc2)n1,-28%,.

# Copied from the list:
# For VACV mCherry inh, Nc1nc2cc(Cl)c(Br)cc2o1 is listed with -5%
# For VACV Venus inh, CCn1cc(C(=O)NCCCOC(C)C)c2cc(OC)c(OC)cc2c1=O is listed with -8%
# For VACV Venus inh, COCc1cc(Sc2ccc(Cl)cc2Cl)nc(-c2ccccc2)n1 is listed with -28%

# Remaining list, next part:
mol,VACV Venus inh,VACV mCherry inh
O=C(CCc1c[nH]c2ccccc12)N1CCCCCCC1,-17%,-10%
C=CC[n+]1cccc(-c2cc3ccc(C)cc3[nH]2)c1,-10%,-6%
Cc1c(CCC(=O)N2CCC(C(=O)NCCCCCC(=O)O)CC2)c(=O)oc2cc3oc4c(c3cc12)CCCC4,-8%,i
O=C(NN1C(=O)C2C(C1=O)C1C=CC2C12CC2)c1cccc(Cl)c1 (centres undefined),-16%,i
C/C(=N\NC(=O)c1cccc(S(=O)(=O)N2CCOCC2)c1)c1ccc(OCC(=O)N(C)C)cc1,-9%,i
COc1cccc(C(=O)O[C@@H]2[C@H](Cc3ccccc3)NS(=O)(=O)[C@H]3C[C@@H]4C=C[C@]23O4)c1,-17%,-13%
Cc1ccc(S(=O)(=O)NNC(=O)c2ccc3ccccc3n2)cc1,-9%,i
Cc1ccc2nc(SCC(=O)N3CCN(c4ccccc4)CC3)nc(=O)n2c1,-6%,-8%
Cc1ccc(CS(=O)(=O)Cc2ccc(C(=O)NCCCN3CCOCC3)o2)cc1,-9%,-17%
Cc1ccc(NC(=O)NC(=O)COc2ccc(Cl)cc2Cl)c(C)c1,-14%,i
Cn1c(=S)n(CCC(=O)O)c2ccccc21,2%,6%
C=CCn1ccc(O)c(Cc2ccc(Cl)cc2)c1=O,-12%,-4%
COc1ccc(OC)c(-n2cnc3cc(C(=O)NCCc4ccccc4)ccc32)c1,-13%,-3%
Cc1cnc(NC(=O)CCN2C(=O)C3CCCCC3C2=O)s1 (centres undefined),-5%,-13%
O=C(Cn1c(-c2cccs2)cc2cc(F)ccc21)NCCc1ccc(Cl)cc1,-3%,-2%
CC(=O)Nc1ccccc1-c1cccc2nccn12,-4%,1%
COc1ccc2c(CNCc3ccco3)c(C(=O)O)n(Cc3ccccc3)c2c1,-7%,-2%
O=C(Cn1cnc2c(cnn2-c2ccc(Cl)cc2)c1=O)NCC1CCCO1 (centres undefined),-13%,.
Cc1cc(C)c([N+](=O)[O-])cc1-c1ccc(/C=N/c2c(-c3ccco3)nc3ccccn23)o1,-2%,-12%
O=C(NCCc1cccc(Cl)c1)c1cccs1,-7%,-8%
CC[C@]12c3[nH]c4cc(-c5ccco5)ccc4c3CCN1C(=O)[C@@H](CC(=O)NCc1ccc(OC)c(OC)c1)C[C@@H]2C(=O)N1CCN(C(=O)C2CC2)CC1,?,-12%
COc1ccc(CNC(=O)Nc2nc(C(N)CCc3ccccc3)cs2)cc1 (centres undefined),-26%,-2%
Cc1ccc2c(c1)c1nc3ccccc3nc1n2CCN1CCOCC1,-6%,-9%
COc1cccc(N2CCN(C(=O)c3nc(-c4ccc(Cl)cc4)n4c3CCCCC4)CC2)c1,-12%,-17%
CCOC(=O)c1c(NC(=O)COc2ccc(F)cc2)sc2c1CCC(C)C2 (centres undefined),9%,-8%
Cc1ccc(O)c(C(=O)c2cnn(-c3ccccc3)c2)c1,5%,-8%
CNC(=O)c1[nH]cnc1C(=O)Nc1ccc(C)cc1,-13%,-19%
CCOc1ccc(-n2c(C)nc(O)c2N=Nc2ccccc2)cc1,-14%,i
CSc1nc(C)c2c(c1C#N)CCCC2,-23%,.
O[C@@H]1C2CCCC1[C@]1(O)CCCCC1C2 (some centres undefined),-21%,.
COc1ccccc1C1CCN(C(=S)Nc2ccc(Br)cc2)CC1,9%,?
O=C(O)C1C2CC3CC(C2)CC1(n1ncc(N2CCC4(CC2)OCCO4)c(Cl)c1=O)C3 (centres undefined),-8%,-11%
O=S(=O)(Nc1cc(F)ccc1F)c1ccc2[nH]c3c(c2c1)CCCCC3,-5%,-11%
C=C1NN(CC#N)C(=O)N1c1ccc(OCc2ccccc2)cc1,-8%,i
O=C(C1CC1)N1CCc2cc(S(=O)(=O)N3CCCc4ccccc43)ccc21,-26%,?
O=C(C1CCN(c2nnc(-n3cccc3)s2)CC1)N1CCc2ccccc2C1,-26%,i
CCOc1ccc(NC(=O)CS(=O)(=O)c2cn(CC)c3ccccc23)cc1,-18%,-16%
N#C/C(=C\Nc1ccccn1)S(=O)(=O)c1ccc(Cl)cc1,2%,-10%
Cc1nnn(C23CC4CC(CC(CC(=O)Nc5ccc(C)c(C)c5)(C4)C2)C3)n1,11%,-9%
Cc1ccc(N(C)S(=O)(=O)c2ccc3c(c2)C(C)(C)C(=O)N3C)cc1C,?,i
CNC(=O)C1(C)Cc2c(-c3ccc(NC(C)=O)cc3)ccnc2O1 (centres undefined),4%,i
CCOC(=O)C1CCCN(C(=O)Cn2ncc3c4ccccc4n(Cc4ccc(F)cc4)c3c2=O)C1 (centres undefined),0%,-2%
O=C1CCc2ccccc2O1,-5%,7%
Cc1ccc(-c2n[nH]c(=S)c3ccccc23)cc1S(=O)(=O)NCC1CCCO1 (centres undefined),6%,-12%
O=C(Nc1c(C(=O)N2CCOCC2)oc2ccccc12)c1ccccc1Cl,-33%,-18%
O=C(O)C(c1ccccc1)N1C(=O)/C(=C\c2ccc(O)c(O)c2)SC1=S (centres undefined),.,382%[activator]
COc1ccc(CCNC(=O)c2cc3ccc(Cl)cc3nc2N)cc1,-28%,-6%
COCc1c(C(=O)N/N=C\c2ccccn2)nnn1-c1nonc1N,-13%,-22%
c1nc(NCc2ccc3c(c2)OCO3)c2[nH]cnc2n1,-15%&-16%,-13%&-4%
CCC(C)Sc1cc(-c2nc3cc(C)ccn3c2NC2CCCCC2)ccc1OC (centres undefined),?,-35%&-11%
Cc1ncc2c(c1CNC(=O)c1ccc3c(c1)OCO3)CCN(C(=O)c1cc3ccccc3o1)C2,6%,-11%
CCOc1cc(/C=N/Nc2nc(N3CCCC3)nc(N3CCCC3)n2)ccc1O,-12%,-10%
Cc1cc(C)n(CCc2nc3c4ccccc4nc(N4CCN(c5cccc(C)c5C)CC4)n3n2)n1,1%,-22%
CCc1ccccc1-n1nnc(-c2nsc(NC(=O)c3ccc(C)c(C)c3)n2)c1C,?,-29%[7.34 µM]
Cc1ccc(Cl)cc1NC(=O)CSc1nc2c(c(=O)[nH]1)CN(Cc1ccccc1)CC2,-1%,16%
Cc1ccc2sc(NNC(=O)c3ccc4c(c3)OCCO4)nc2c1C,-20%,0%
CC1O[C@@H](Oc2c(-c3ccc(O)c(O)c3)oc3cc(O)cc(O)c3c2=O)C(O)C(O)C1O (some centres undefined),-14%,-15%
O=C(Nc1ccccc1[N+](=O)[O-])c1csnn1,-4%,1%
CC(NC(C)(C)C)C(=O)c1cccc(Cl)c1 (centres undefined),-6%&-11%,0%&-22%
O=C(NCC1CCCCC1)c1ccccc1[N+](=O)[O-],-12%,-3%

# Next records follow.
mol,VACV Venus inh,VACV mCherry inh
Cn1nc(-c2ccc(OCC(=O)Nc3ccccc3)cc2)c2ccccc2c1=O,-24%,?
O=C(NC(=S)N1CCN(Cc2ccc3c(c2)OCO3)CC1)c1ccc(Cl)cc1,-16%,-24%
Cc1cc(NC(=O)CN2C(=O)NC(C)(c3ccc(OC(F)F)cc3)C2=O)no1 (centres undefined),?,.
CCC(c1nnnn1C1CCCC1)N(Cc1cccs1)Cc1cc2cc(C)ccc2[nH]c1=O (centres undefined),-22%,.
CC(=O)NC1C(Oc2ccc(C)cc2)OC2COC(c3ccco3)OC2C1O (centres undefined),-9%,-11%
O=C(C[C@H]1C=C[C@H](NC(=O)Nc2ccccc2F)[C@@H](CO)O1)NCc1ccc(-c2ccccc2)cc1,-17%,2%
CCC1CN(CCNC(=O)c2cscn2)Cc2cc(OC)ccc2O1 (centres undefined),-4%,-9%
Cc1cc(NC(=O)CSc2nnc(CNC(=O)c3ccc(F)cc3)o2)no1,-10%,-6%
CCOc1ccc(S(=O)(=O)NCc2ccc(C)cc2)c2cccnc12,-19%,-3%
CC1CCC(NC(=O)CCNC(=O)c2ccc(Br)cc2)CC1 (centres undefined),-8%,-19%
COc1ccc(CCN2C(=O)CC(N3CCN(C/C=C/c4ccccc4)CC3)C2=O)cc1OC (centres undefined),-1%[7.34 µM],-11%[7.34 µM]
COc1c(F)c(F)c(C(=O)O)c(Nc2cccc(C)c2)c1F,-7%,i

# Profiles from above:
# `CCC1CN(CCNC(=O)c2cscn2)Cc2cc(OC)ccc2O1` (centres undefined) is entered as VACV Venus inh: -4%; VACV mCherry inh: -9%
# `CCC(c1nnnn1C1CCCC1)N(Cc1cccs1)Cc1cc2cc(C)ccc2[nH]c1=O` (centres undefined) is entered as VACV Venus inh: -22%; VACV mCherry inh: .

# Next section.
mol,VACV Venus inh,VACV mCherry inh
COc1ccc(-c2c3c(=O)n(C)c(=O)n(C)c3c3n2-c2ccccc2NC3c2ccc(O)cc2O)cc1 (centres undefined),-9%,-22%
Cc1cc2c(cc1NS(=O)(=O)c1ccc(Br)cc1)n(C)c(=O)c(=O)n2C,-7%,-9%
C=CCNC(=O)c1onc(CSc2ccccn2)c1C(=O)NCC=C,-15%,-13%
CCC(=O)NC(c1ccc(Cl)cc1Cl)c1ccc2cccnc2c1O (centres undefined),?,2µM*
CC1(C)CC(=O)c2cnc3c(C#N)cnn3c2C1,-5%,i
O=C(OCC(=O)N1CCOCC1)c1ccc(Cl)c(S(=O)(=O)N2CCc3ccccc32)c1,-12%,i
COc1ccc(Nc2nc(C)nc3c2oc2ccccc23)c(OC)c1,?,-12%
CCc1sc(C(C2C(=O)CC(C)(C)CC2=O)C2C(=O)CC(C)(C)CC2=O)cc1[N+](=O)[O-],2%,i
CCOC(=O)c1c(C)c(-c2ccccc2)n(CC(=O)NC2CCCCCC2)c1C,-5%,-4%
CCCC(=O)Nc1nnc(SCC(=O)Nc2ccc(OCC)cc2)s1,-9%,i
Cc1ccc(NC(=O)COC(=O)c2cc(Cl)ccc2Cl)c(Br)c1,2%,-10%
Clc1ccc(C2CC(c3cccs3)n3ncnc3N2)c(Cl)c1 (centres undefined),-13%,-16%
CC1(Cc2ccccc2Cl)C(=O)Nc2cc(-c3ccccc3Cl)ccc21 (centres undefined),-8%,i
COc1ccc(-n2c(SCC(=O)N3CCCCC3C)nnc2-c2cccnc2)cc1 (centres undefined),-9%,-12%
COC(=O)CN1C(CN2CCOCC2)=Nc2ccc(Br)cc2C1c1ccccc1 (centres undefined),0%[7.34 µM],i[7.34 µM]
CCNc1nc(NCC)n2c(SCC(=O)Nc3cc(Cl)ccc3OC)nnc2n1,-6%,-11%
Cn1c(SCC(=O)N2CCOCC2)ncc(C(=O)Nc2ccccc2)c1=O,-6%,i
Cc1oc2cc(O)cc(C)c2c(=O)c1-c1cnn(-c2ccccc2)c1,?,-4%
C=CCN1CCN(c2ccncc2S(=O)(=O)N2CCCCC2)CC1,-15%,i
Cc1ccc(C)c(Nc2nn3c(=O)c4cc5c(cc4nc3s2)OCO5)c1,?,?
CCCCN(C(=O)C1CCCC1)c1c(N)n(Cc2ccccc2)c(=O)[nH]c1=O,-9%,i
Cc1nn(C)c(C(=O)NNC(=S)NC2CCCCC2)c1Cl,-12%,-20%
CS(=O)(=O)c1cccc(-c2nnc(NC(=O)c3ccc4c(c3)OCCO4)o2)c1,-5%[7.34 µM],-8%[7.34 µM]
O=C(C(=O)N1CCN(c2ccccc2)CC1)c1cccc(Br)c1,-16%,?
COc1cccc(-c2cnc3c(NC=O)cc(-c4ccccc4)cn23)c1,?,-7%
O=C1CN(C(=O)COc2ccccc2)C(c2ccc(F)cc2)c2cc(Br)ccc2N1 (centres undefined),-15%,-4%
Fc1ccc([C@@H]2Nc3ccccc3[C@@H]3C=CC[C@@H]32)cc1,-2%,10%
CCc1ccc(N2CC(C(=O)OCC(=O)Nc3ccc([N+](=O)[O-])cc3)CC2=O)cc1 (centres undefined),-9%,-2%
